Source: PubChem (several laboratories)
Mtb bLac sens = beta-lactam sensitization of Mtb H37Rv, H37Rv; M. tuberculosis H37Rv growth with meropenem, percent inhibition; hits of this screen are not shown here; inhibition, % at 25 µM; hit rate 0.27% among 330,000;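 active = about 74% or more and at least 40 points above the plate without the antibiotic, then above 30% in a dose series; inconclusive = first-round hits that could not be retested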;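 also: growth measured after seven days incubation then overnight dye step; 0% = bacteria only wells and 100% = bacteria with antibiotic; twin plates without the antibiotic show which effects depend on it; some results filed as inactive read as strong as hits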
YopH PTP inh = YopH tyrosine phosphatase inhibitors, primary screen, biochemical, fluorescence Ex485/Em525 | AID 898, 2007 | inhibition, %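 (about 10 µM by stock and volumes)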 | hit rate 0.16% among 140,000;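 active = inhibition of 50% or more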;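 also: controls were vehicle for no effect and minimum signal wells for full effect; inactives centre near -20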
Mtb H37Rv = M. tuberculosis H37Rv growth inhibitors, H37Rv strain (AID 1626); hit rate 0.95% among 220,000; inhibition, % at 10 µM, or IC50 in µM where a hit was titrated; M. tuberculosis H37Rv growth inhibition; higher % means a stronger effect;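 active = confirmed in a dose series; inconclusive = inhibition above 80% but not taken into the dose series; inactive = below 80% or under 30% at every dose of the series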;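 also: bacteria incubated seven days before Alamar blue readout; 0% = bacteria only wells and 100% = bacteria with antibiotic wells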
Arbovirus inh = antivirals against arbovirus infection, primary screen, cell-based, full library, 10K replicate subset; inhibition, % at 10 µM; arbovirus infection cell-based antiviral screen; hit rate 0.37% among 200,000;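 active = inhibition from about 30%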;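 also: bluetongue infection of BSR cells; cell survival read as ATP light after 72 h; 0% = infected wells without compound and 100% = uninfected wells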
RecA intein inh = Mtb RecA intein splicing inhibitors, primary screen, biochemical, fluorescence, HTS. Protein RecA (Mycobacterium tuberculosis (strain ATCC 25618 / H37Rv)), P9WHJ3. cell-free RecA intein splicing. inhibition, %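 (about 9 µM by stock and volumes)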. hit rate 0.75% among 290,000. AID 2221, 2009; in the data active = inhibition above about 30%; inconclusive = no clear call, values can overlap the other calls;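 also: 0% = vehicle wells and 100% = reference inhibitor control wells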
Target sequence (P9WHJ3 whole entry, looked up): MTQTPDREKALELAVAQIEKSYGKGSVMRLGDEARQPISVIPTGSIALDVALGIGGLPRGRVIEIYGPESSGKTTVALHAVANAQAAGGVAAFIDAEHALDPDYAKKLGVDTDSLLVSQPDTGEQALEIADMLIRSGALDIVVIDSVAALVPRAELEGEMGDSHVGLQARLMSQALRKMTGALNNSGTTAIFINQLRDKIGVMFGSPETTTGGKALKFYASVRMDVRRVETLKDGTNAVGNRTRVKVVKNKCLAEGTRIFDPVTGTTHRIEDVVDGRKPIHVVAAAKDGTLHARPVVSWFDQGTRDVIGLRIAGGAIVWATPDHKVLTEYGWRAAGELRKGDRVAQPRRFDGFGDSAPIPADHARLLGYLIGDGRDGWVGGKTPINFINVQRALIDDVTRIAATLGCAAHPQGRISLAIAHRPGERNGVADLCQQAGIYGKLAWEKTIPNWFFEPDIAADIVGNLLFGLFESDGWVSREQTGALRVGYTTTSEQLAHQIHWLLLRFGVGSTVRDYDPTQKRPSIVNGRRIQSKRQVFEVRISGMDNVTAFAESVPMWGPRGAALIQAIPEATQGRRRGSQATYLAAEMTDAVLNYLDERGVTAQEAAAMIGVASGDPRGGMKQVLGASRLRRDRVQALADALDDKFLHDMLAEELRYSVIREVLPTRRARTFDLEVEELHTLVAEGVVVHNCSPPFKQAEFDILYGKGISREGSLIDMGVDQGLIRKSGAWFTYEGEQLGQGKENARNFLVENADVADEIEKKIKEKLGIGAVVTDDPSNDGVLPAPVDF
Arbovirus inh repeat = also measured in Arbovirus inh; calls as there; inhibition, %; measured here: 10K subset replicate screen; many hits read low in the repeat;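 first of two repeat runs on a subset; 0% = infected and 100% = uninfected wells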
The depositor's hits bear a star; u = inconclusive; x = not tested or not shown. Not all compounds are listed; rates above refer to the full screens.

A first look (4 entries):
SMILES	Mtb bLac sens	YopH PTP inh	Mtb H37Rv	Arbovirus inh	RecA intein inh	others
Cc1[nH]n(C(N)=S)c(=O)c1N=Nc1cc(C(F)(F)F)ccc1Cl	5.6	x	x	x	3.1
Nc1ncnc2c1nc(Sc1ccc(Cl)cc1)n2[C@@H]1O[C@@H]2COP(=O)(O)O[C@H]2[C@H]1O	-1.4	x	-8.6%	x	-1.9
Cc1nonc1-c1ccc2c(c1)OCO2	-1.1	x	-2.4%	x	2.5
O=C(NCc1ccc(C(=O)O)cc1)OCc1ccccc1	0.0	x	5.0%	6.6	-2.7

Main list, from the start:
SMILES	Mtb bLac sens	YopH PTP inh	Mtb H37Rv	Arbovirus inh	RecA intein inh	others
Cc1[nH]n(C(N)=S)c(=O)c1N=Nc1cc(C(F)(F)F)ccc1Cl	5.6	x	x	x	3.1
Nc1ncnc2c1nc(Sc1ccc(Cl)cc1)n2[C@@H]1O[C@@H]2COP(=O)(O)O[C@H]2[C@H]1O	-1.4	x	-8.6%	x	-1.9
Cc1nonc1-c1ccc2c(c1)OCO2	-1.1	x	-2.4%	x	2.5
O=C(NCc1ccc(C(=O)O)cc1)OCc1ccccc1	0.0	x	5.0%	6.6	-2.7
O=C(Nc1nccs1)C1(S(=O)(=O)c2ccc(Cl)cc2)CC1	-4.5	-37.8	3.5%	0.8	2.2
COc1ccc(C(=O)Nc2nc(-c3ccc(S(=O)(=O)N4CCOCC4)cc3)cs2)cc1	28.9	-30.1	5.2%	-8.1	0.0
Cc1cc(C(=O)N2CCN(c3ccc([N+](=O)[O-])cc3)CC2)co1	-13.1	x	x	x	4.5
Cc1ccc(C2(c3ccc(C)cc3)NC(=O)N(CC(N)=O)C2=O)cc1	-17.0	x	x	x	-1.2
CN(C)C(=O)c1ccc(-c2cc(C(F)(F)F)n(C)n2)s1	-3.2	x	8.5%	x	-0.6
CCOC(=O)c1c(C)n(CC)c2ccc(OC(=O)c3ccc([N+](=O)[O-])cc3)cc12	96.4	-30.1	u	-9.1	-0.6
O=C(Nc1ccccc1)C1CC(=O)N(Cc2ccccc2)C1 (stereo unspecified)	-27.2	x	x	x	-2.4
CC(=O)OCCCNc1cc(Sc2nc3ccccc3s2)c2nonc2c1[N+](=O)[O-]	96.3	0.8	7.74µM*	-40.0	28.3
Cn1c(=O)c2c(nc(N3CCCCC3)n2CC(O)COc2ccccc2)n(C)c1=O (stereo unspecified)	-7.2	x	x	x	-1.9
COc1cc(NC(=O)CN(c2ccc(C)cc2)S(=O)(=O)c2c(C)n[nH]c2C)cc(OC)c1	1.6	-39.3	8.0%	-24.3	-0.1
CC(C)c1ccc(C(O)c2nc3ccccc3n2C)cc1 (stereo unspecified)	-4.6	x	x	x	-2.2
COc1ccc(/C=C/C(=O)NC(=S)Nc2ccccc2C(=O)NC2CCCCC2)cc1	6.9	-23.3	6.7%	17.7	2.2
CCOC(=O)Cc1csc(NC(=O)c2cnc3sc(C)cn3c2=O)n1	9.0	x	x	x	1.0
CC1Cc2ccccc2N1S(=O)(=O)c1cccc(C(=O)OCC(=O)NC2CCS(=O)(=O)C2)c1 (stereo unspecified)	-8.0	-7.2	-2.3%	-5.0	-1.3
c1cnc2c(SCc3ccc(-c4nnco4)cc3)cccc2c1	-4.5	-22.2	5.1%	0.5	2.0
CC(=O)Nc1ccc(Oc2nc(-c3ccccn3)nc3ccccc23)cc1	72.2	x	-12.6%	x	0.7
COc1ccccc1NC(=O)Cn1c(=O)n(-c2ccccc2)c(=O)c2oc3ccccc3c21	2.3	-8.4	1.5%	-7.5	-2.2
CCOC(=O)Cn1nc(C)c(-c2ccccc2)c1N	-5.5	-51.5	-5.9%	-1.3	-1.3	Arbovirus inh repeat=-0.3
O=C1Nc2cc(C(=O)NCCCN3CCOCC3)ccc2S/C1=C/c1ccccc1F	8.3	x	x	x	-1.7
COc1cc(/C=N/NC(=O)c2cc(-c3c(C)nn(-c4ccccc4)c3C)n[nH]2)ccc1O	93.9	x	-4.2%	-2.5	0.1
O=C(c1scc2c1CCCC2)N1CCOCC1	-0.3	-23.3	4.2%	-3.4	-0.4
Nc1ccccc1N=c1ssnc1Cl	x	x	-8.3%	-4.0	x
Cc1cc(C)c(NC(=O)c2ccccc2C(=O)c2ccccc2)c(C)c1	-5.9	x	10.2%	-3.3	-1.3
CC(=O)OC1COC(N2CCc3cc([N+](=O)[O-])ccc32)C(OC(C)=O)C1OC(C)=O (stereo unspecified)	-1.4	-33.6	-11.8%	2.4	2.2
COc1ccc(NC(=S)N/N=C/c2cccn2Cc2ccc(F)cc2)cc1	1.4	x	1.5%	-8.0	2.1
CN(C)S(=O)(=O)c1cccc(NC(=O)COc2nc3ccccc3nc2N2CCOCC2)c1	-1.1	-3.2	4.1%	13.4	2.9
O=C(Cc1cccs1)Nc1ccc(N2CCOCC2)cc1	-10.4	-4.8	-10.4%	-5.5	-1.7
COc1ccc([N+](=O)[O-])cc1NC(=O)CCN1CCN(C)CC1	-5.6	x	-1.9%	0.2	-1.6
CC1CN(c2ccc(NS(=O)(=O)c3ccccc3)cc2C(=O)O)CC(C)O1 (stereo unspecified)	-3.2	x	-14.9%	x	-1.6
Cc1ccc(NC(=O)c2ccco2)c(NC(=O)COc2ccccc2)c1	1.1	x	x	x	-2.4
CCOC(=O)c1cnc(C(F)(F)F)nc1Oc1ccccc1	2.6	x	-6.0%	x	-1.4
COC(=O)c1ccc(COc2ccc(NC(C)=O)cc2)o1	-9.2	x	x	x	-1.0
N#CC(C#N)=CN=c1ccn(Cc2ccc(Cl)cc2Cl)cc1	3.5	x	x	x	-6.3
COc1cc(C=O)ccc1OCC(=O)Nc1ccc2c(c1)OCO2	2.0	x	x	x	-0.6
Cc1ccc(CN(C(=O)COc2cccc(C)c2C)C2CCS(=O)(=O)C2)o1 (stereo unspecified)	-2.0	x	x	x	1.5
COc1ccccc1CNC(=O)COc1ccccc1OC	-5.7	-24.6	0.7%	1.3	-1.2
COc1ccccc1NS(=O)(=O)c1c(C)nc2sccn2c1=O	-8.1	x	x	x	-1.3
Oc1ccc(N=Nc2cccc(Cl)c2)cc1C=Nc1ccc(N2CCOCC2)cc1	x	-27.6	25.2%	-11.6	2.8
CCOC(=O)c1cccc(NC(=O)CCOc2ccccc2)c1	-14.5	x	61.8%	-6.7	2.7
CC1CCN(C(=O)COc2ccc(Nc3ccccc3)cc2)CC1	1.0	x	8.8%	-10.7	0.7
CCC(CO)NC(=O)C1C=C2c3cccc4[nH]cc(c34)CC2N(C)C1 (stereo unspecified)	-2.4	x	2.6%	x	20.7

Among those listed so far, these have a COOH group.
SMILES	Mtb bLac sens	YopH PTP inh	Mtb H37Rv	Arbovirus inh	RecA intein inh	others
O=C(NCc1ccc(C(=O)O)cc1)OCc1ccccc1	0.0	x	5.0%	6.6	-2.7
CC1CN(c2ccc(NS(=O)(=O)c3ccccc3)cc2C(=O)O)CC(C)O1 (stereo unspecified)	-3.2	x	-14.9%	x	-1.6

Continued.
SMILES	Mtb bLac sens	YopH PTP inh	Mtb H37Rv	Arbovirus inh	RecA intein inh	others
COCCCNC(=O)C1CCN(S(=O)(=O)c2ccc3nc4c(c(C(=O)O)c3c2)CCCCC4)CC1	-0.8	x	x	x	0.6
CC12CCC(C(=O)N3CCN(c4ccccc4)CC3)(CC1=O)C2(C)C (stereo unspecified)	-3.1	-56.8	3.4%	-4.7	0.2
Cc1oc2c(c1C(=O)c1ccc(Cl)cc1)C(=O)C(=O)c1ccccc1-2	x	5.5	x	-43.8	5.2
Cc1oc2c(CN3CCCC3)c(O)ccc2c(=O)c1-c1ccccc1	4.6	0.7	-2.8%	-6.2	-5.7
CCCn1c2c(c(=N)c3c1CCC3)CCCC2	2.0	-20.7	-1.2%	-4.0	0.0
O=C(C1=C(O)C(=O)N(c2ncccn2)C1c1ccc(Cl)c(Cl)c1)c1ccco1 (stereo unspecified)	7.7	-24.8	-2.7%	5.1	-0.4
Cc1ccc(CN2CC(C(=O)Nc3cc(S(C)(=O)=O)ccc3Cl)CC2=O)cc1 (stereo unspecified)	3.5	-16.3	-0.9%	-3.5	1.8
CC(C)(C)c1cc(C(=O)NCC(=O)OCC(=O)c2cccc([N+](=O)[O-])c2)cc(C(C)(C)C)c1	6.5	-29.4	-4.3%	-7.7	-0.9
COc1cccc(N2CCN(c3ccc4nnc(CCC(=O)Nc5ccc(C)cn5)n4n3)CC2)c1	1.3	x	x	x	0.8
CCn1cnc2c1c(=O)n(CC(=O)NCC(C)C)c(=O)n2Cc1ccccc1	-1.6	x	x	x	-2.0
CC(CC(=O)NCCc1ccc(Cl)cc1)S(=O)(=O)c1ccc2c(c1)NC(=O)CO2 (stereo unspecified)	3.7	x	x	x	0.0
COc1ccc(NS(=O)(=O)c2cn(C)cn2)cc1	-8.7	x	-5.9%	x	-1.9
COc1cccc(CN2CC(C(=O)NCCn3cccn3)CCC2=O)c1 (stereo unspecified)	-1.8	x	x	x	-0.1
CC(C)(C)c1nnc(N/N=C/c2ccc(O)cc2)n(N)c1=O	-0.7	-29.1	5.7%	-5.8	-4.4
c1ccc(CN2CCN(Cc3ccc4ccccc4c3)CC2)cc1	23.4	x	x	x	-3.0
O=[N+]([O-])c1ccc(Oc2ccc(S(=O)(=O)N3CCOCC3)cn2)cc1	0.3	x	x	x	-1.9
CCOC(=O)N1CCN(C(=O)c2ccc3c(=O)n(CCOC)c(=O)[nH]c3c2)CC1	0.2	-36.5	x	-0.5	-3.4
Cc1nnc(SCc2ccc(Cl)c(Cl)c2)s1	-1.4	x	1.8%	-17.5	5.2
N#Cc1ccncc1Sc1ccc(Cl)cc1	3.3	x	x	x	-1.2
N#CCc1ccc(NS(=O)(=O)c2ccc(C3CCCCC3)cc2)cc1	-8.7	-13.4	0.9%	-29.3	10.4
Cn1c(=O)c2[nH]c(-c3ccccc3Cl)c(O)c2n(C)c1=O	15.1	-37.2	-12.3%	2.5	-8.3
NC(=O)C1CC(=O)N(c2ccc(OCc3ccc(Cl)cc3)cc2)C1 (stereo unspecified)	11.0	x	1.5%	20.1	x
c1ccc2[nH]c(CN3CCN(c4ncnc5c4oc4ccccc45)CC3)nc2c1	21.6	-57.6	5.3%	-8.8	x
O=c1[nH]c(=S)n(C2CCCCC2)c(O)c1/C=N/N1CCOCC1	-5.9	x	10.9%	x	-3.5
Cc1ccc(CSCC(=O)Nc2ccccc2C(=O)O)cc1	6.7	x	x	x	1.8
CC(=O)Nc1ccc2c(c1)nc(CCN1CCC(C)CC1)n2C	6.0	0.9	-1.2%	-3.4	-3.2
O=C(N/N=C/c1cc2c(cc1Br)OCO2)c1c[nH]c2ccccc12	-4.7	x	9.8%	-7.7	-0.2
COc1ccc(CCNC(=O)Cc2ccc(NC3=NC4CS(=O)(=O)CC4S3)cc2)c(OC)c1 (stereo unspecified)	-1.4	x	x	x	-0.3
C=C1CCC[C@]2(C)C[C@H]3OC(=O)C(CN[C@@H](C)c4ccccc4)[C@H]3CC12 (stereo partly specified)	8.4	x	x	x	2.7
COc1ccc(N2CCN(C(=O)COCc3cc(-c4ccc5c(c4)OCO5)on3)CC2)cc1	u	x	x	x	-2.9
COc1ccc(O)c(/C=N/n2c(-c3ccco3)csc2=Nc2cccnc2)c1	2.1	-7.9	-1.0%	-2.2	-12.1
COC(=O)CNC(=O)c1ccc2c(c1)S(=O)(=O)c1ccccc1C2=O	-6.5	-10.9	3.9%	-0.2	-1.6
CCOC(=O)c1c2n(c3ccc(O)cc13)CCC2	2.5	-23.9	-2.8%	-0.3	-7.7
CCCN(CCC)CC(O)CN1C(=O)NC(C)(C)C1=O (stereo unspecified)	-0.1	x	-1.2%	-3.5	3.3
CC(C)(C)Nc1nc(NC(C)(C)C)nc(-n2ccnc2)n1	92.5	-9.0	11.4µM*	2.2	x
CCc1ccc(-c2cc(C(=O)N/N=C/c3c[nH]c4ccccc34)[nH]n2)cc1	73.7	x	21.2%	-29.0	6.8
N#CCSc1nc(-c2ccccc2)nc2ccc(F)cc12	-0.9	x	x	x	1.7
N#C/C(=C(/O)CN1CCCC1)c1nc(-c2ccccc2)cs1	-1.8	x	-0.6%	x	1.0
CCn1c2ccccc2c2cc(NC(=O)COC(=O)c3cccc(S(=O)(=O)NC)c3)ccc21	-0.8	-46.0	0.8%	-3.3	0.9
Cc1cccc(NC(=O)CSc2nnc(-c3cc(C)n(-c4ccccc4)c3C)o2)c1C	-8.2	-14.8	x	14.9	10.1
CCOCCCNC(=S)Nc1cc(C)cc(C)c1	1.9	-17.4	57.9%	5.6	1.8
